PINK1 modulator: PINK1 expression modulation; PINK1 immunofluorescence, high-content cytometry, 24 h; Potency, µM (titrated, usually from 76.6 µM), without a hit: at the top dose activation (PINK1 increase), actives largely listed as activators; 410,000 tested, 0.2% active; AID 624263; active = well fitted activation curve with a large enough effect; inconclusive = small, poorly fitted or top-dose-only effect; inactive = flat fitted curve, though single readings scatter; cell line not stated here;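 also: potency is read from the fitted curve at half-maximal effect; % of control where 0% means no effect; nearly all actives have a fitted effect of over 65% in size; a mitochondrial uncoupler was the plate control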
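PINK1 protein level read as immunofluorescence by microplate cytometer in a fixed, stained stable cell line after 24 h exposure to five compound concentrations, with CCCP as control.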
TRPML1 agonist: agonists of human TRPML1 channel | AID 624414 | activation, % (test concentration not listed) | TRPML1-expressing cells, Ca2+ dye fluorescence, FDSS; host cell line not named in the record; reference of the full effect not given here | 410,000 tested, 0.12% active; in the data active = activation above about 50%; inconclusive = about 30% to 50%; inactive = below about 30%; also: 0% is about no effect; the text of the record puts the active cut at 80%
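Calcium fluorescence on an FDSS kinetic reader gave the read-out. Tet-induced TRPML1-DL cells were plated overnight, dye-loaded (Ca8 with quencher, 45-90 min, room temperature, dark), then read 110 s after compound addition, and again 110 s after 4uM final 54-4 (EC80).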
Menin MLL FP FL: menin-MLL binding inhibition, fluorescein peptide. Fluorescence polarization, fluorescein-MLL peptide displacement from menin. FP activity change, % at 61.4 µM. 290,000 tested, under 10 active; inconclusive = falling polarisation curve, or a change in total fluorescence; inactive = total fluorescence flat and polarisation flat or rising; no compound was filed as active; the % refers to the polarisation; negative = inhibition;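 also: % of control where 0% means no effect; inhibitors lower the polarisation; unlabelled MLL peptide was the positive control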
ClpP mod: qHTS Assay for Activators of ClpP | AID 651965, 2013 | purified B. subtilis ClpP, FRET peptide cleavage, 20 min | 340,000 tested, 1.9% active | Potency, µM (titrated, usually from 57.5 µM), without a hit: at the highest dose activity change, negative = active | ATP-dependent Clp protease proteolytic subunit (Bacillus subtilis (strain 168)), P80244; active = well fitted falling curve with a large enough effect; inconclusive = small, poorly fitted or top-dose-only effect; inactive = no such curve, though single readings can be large or run the other way; also: potency is read from the fitted curve at half-maximal effect; the source files actives as falling curves though it sought activators and does not explain the sign; nearly all actives have a fitted effect of over 65% in size; many hits overshoot -100%
Target sequence (P80244 whole entry, looked up): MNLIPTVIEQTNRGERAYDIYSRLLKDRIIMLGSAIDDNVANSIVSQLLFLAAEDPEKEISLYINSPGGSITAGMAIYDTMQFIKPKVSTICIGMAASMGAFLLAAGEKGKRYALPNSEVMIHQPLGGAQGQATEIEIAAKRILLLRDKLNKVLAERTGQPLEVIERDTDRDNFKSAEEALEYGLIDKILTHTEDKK
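Buffer: 100 mM Tris/HCl pH8, 100 mM KCl, 0.05% low protease BSA, 2.5% glycerol, 0.01% Tween-20. ClpP 10 microg/mL final; 20 min RT; delta FRET normalized to ADEP and DMSO controls.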
TRPV1 PAM: enhances activation of the human vanilloid receptor TRPV1; Q8NER1; TRPV1-expressing cells, Fluo-8 calcium influx, capsaicin EC20 potentiation; host cell line not named in the record; control for the full effect not named in the record; potentiation, % at 8.33 µM; 320,000 tested, 0.02% active; active means potentiation above 80%; inconclusive means 30% to 80%; inactive means below 30%; also: 0% is about no effect
Target sequence (Q8NER1 whole entry, looked up): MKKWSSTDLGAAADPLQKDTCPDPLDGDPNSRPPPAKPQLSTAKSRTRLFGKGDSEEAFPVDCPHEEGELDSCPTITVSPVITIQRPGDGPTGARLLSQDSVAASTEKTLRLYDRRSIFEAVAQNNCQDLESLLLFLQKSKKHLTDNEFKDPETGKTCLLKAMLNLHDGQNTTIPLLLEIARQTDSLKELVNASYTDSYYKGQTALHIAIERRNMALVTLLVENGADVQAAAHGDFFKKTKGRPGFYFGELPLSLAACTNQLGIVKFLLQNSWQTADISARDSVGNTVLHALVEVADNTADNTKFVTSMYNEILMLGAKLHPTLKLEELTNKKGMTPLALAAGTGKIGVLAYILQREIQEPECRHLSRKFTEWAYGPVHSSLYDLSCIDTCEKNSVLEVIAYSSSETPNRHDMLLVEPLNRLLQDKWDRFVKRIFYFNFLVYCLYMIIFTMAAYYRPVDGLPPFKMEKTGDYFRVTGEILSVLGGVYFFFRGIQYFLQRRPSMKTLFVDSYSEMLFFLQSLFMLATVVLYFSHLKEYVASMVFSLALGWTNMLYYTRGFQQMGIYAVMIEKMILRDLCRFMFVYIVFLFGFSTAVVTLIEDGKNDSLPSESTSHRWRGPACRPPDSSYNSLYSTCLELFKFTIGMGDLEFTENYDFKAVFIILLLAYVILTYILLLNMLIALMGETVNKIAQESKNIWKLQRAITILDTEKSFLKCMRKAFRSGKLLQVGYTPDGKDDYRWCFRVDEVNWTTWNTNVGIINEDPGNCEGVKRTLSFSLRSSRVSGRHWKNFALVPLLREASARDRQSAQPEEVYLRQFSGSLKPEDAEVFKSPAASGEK
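Fluo-8 calcium influx in TRPV1-expressing cells, kinetic read (ex 480/em 520 nm). Compound added and read 3 min for agonist activity, followed by capsaicin at EC20 final and 2 min further read for enhancement.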
TRPML1 inh: inhibitors of human TRPML1 channel. 390,000 tested, 0.02% active. activity change, negative = inhibition, % (concentration not given with the values). TRPML1-inducible cells, Ca2+ dye fluorescence, FDSS; hits give low values; inhibition of EC80 agonist-evoked calcium signal. Q9GZU1; in the data active means activity change below about -50%; inconclusive means about -30% to -50%; inactive means above about -30%;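 also: stimulus is agonist 54-4 at its EC80 concentration; % is scaled to controls: 0 for no effect and ±100 for the full control effect; compound concentration not given in the record; the text of the record puts the active cut at -80%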
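Calcium fluorescence in TRPML1-DL cells induced overnight with Tet: a 110 s read after compound pin addition, then a 110 s antagonist read after challenge with 54-4 at 4 uM final (EC80).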
Sfp PPTase inh: Sfp phosphopantetheinyl transferase inhibition; Q9F4F7; Biochemical Sfp PPTase activity, qHTS; Potency, µM, inactives show max response, negative = inhibition, actives largely listed as inhibitors; 310,000 tested, 3.5% active; AID 1490; active = well fitted inhibition curve with a large enough effect; inconclusive = small, poorly fitted or top-dose-only effect, or another doubt; inactive = no such curve, though single readings can be large or run the other way;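 also: the enzyme is Sfp with the accession as filed and its product quenches rhodamine fluorescence; potency is read from the fitted curve at half-maximal effect; 0% = enzyme reaction without inhibitor and -100% = no enzyme wells; top concentration of the series not given in the record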
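Fluorescence-quenching assay: 15 nM Sfp-PPTase preincubated 15 min at room temperature with compound, then 5 uM rhodamine-CoA and 12.5 uM BHQ-2-labelled YbbR peptide added. Fluorescence (ex 525/em 598 nm) read at start and after 30 min; difference gives rate.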
* marks the source's active call; other numbers are inactive results; & = joins results of further samples; [ ] = remark or other dose.

`CCOc1ccc(S(=O)(=O)Nc2nc3ccccc3nc2-n2ccc(=NC(=O)c3ccccc3C)cc2)cc1` gave PINK1 modulator -1.0%, TRPML1 agonist 6.3, Menin MLL FP FL inconclusive, ClpP mod 1.3%, TRPV1 PAM -5, TRPML1 inh -17 and Sfp PPTase inh -1%.
`c1ccc2c(Nc3ccc4c(c3)OCCO4)c3c(nc2c1)CCCC3` gave PINK1 modulator 40µM*, TRPML1 agonist 1.0, Menin MLL FP FL -3.4, TRPV1 PAM -9, TRPML1 inh 5 and Sfp PPTase inh 50µM*.
`COC(=O)c1ccn(CSc2cc(Cl)ccc2Cl)n1` gave PINK1 modulator -0.9%, TRPML1 agonist 1.0, ClpP mod 0.1%, TRPV1 PAM -3 and TRPML1 inh -5.
CCCN(CCC)C(=O)C1CCCN(S(=O)(=O)c2ccc3c(c2)oc(=O)n3C)C1 (configuration not stated) was read as PINK1 modulator -1.0%&-0.1%, TRPML1 agonist -1.0&-0.4, Menin MLL FP FL 1.6, ClpP mod 0.9%&-1.1%, TRPV1 PAM -24, TRPML1 inh 28&-11 and Sfp PPTase inh 14%.
For CCOC(=O)C1CCCN(C(=O)C2CCN(C(=O)Nc3ccccc3)CC2)C1 (configuration not stated) the results were PINK1 modulator 2.3%, TRPML1 agonist 2.0, ClpP mod -1.8%, TRPV1 PAM 1 and TRPML1 inh 0.
For COc1ccc(N2CC(C(=O)Nc3ccc(S(=O)(=O)Nc4nccs4)cc3)CC2=O)cc1 (configuration not stated) the results were PINK1 modulator 1.2%, TRPML1 agonist 0.4, Menin MLL FP FL 4.1, TRPV1 PAM -10, TRPML1 inh -7 and Sfp PPTase inh 5%.
`CCC(=O)NC(NC(=S)Nc1c(C)n(C)n(-c2ccccc2)c1=O)C(Cl)(Cl)Cl` (configuration not stated) gave PINK1 modulator 4.8%, TRPML1 agonist 0.1, Menin MLL FP FL 1.9, ClpP mod -0.5%, TRPV1 PAM 1, TRPML1 inh -14 and Sfp PPTase inh -13%.
Screening Nc1nc(-c2ccco2)nn1C(=O)c1ccc([N+](=O)[O-])cc1 returned PINK1 modulator -1.0%, TRPML1 agonist 0.0, Menin MLL FP FL -0.9, TRPV1 PAM 1, TRPML1 inh -2 and Sfp PPTase inh 9%.
`CCCN(CCC)c1cc(C)nc2nc(-c3ccc(Cl)cc3)nn12` gave PINK1 modulator -0.3%, TRPML1 agonist -0.6, ClpP mod 0.7% and TRPML1 inh -2.
`Cc1c(CN2CCC(n3nccc3NC(=O)C3CCOC3)CC2)[nH]c2ccccc12` (configuration not stated) gave PINK1 modulator 1.2%, TRPML1 agonist 0.4, ClpP mod -6.7%, TRPV1 PAM -11, TRPML1 inh 4 and Sfp PPTase inh 18%.
Fc1ccc2nc(Nc3nc4c(F)cc(F)cc4s3)sc2c1 was read as PINK1 modulator inconclusive, TRPML1 agonist 0.5, Menin MLL FP FL 5.1, ClpP mod 8.9µM*, TRPV1 PAM 5, TRPML1 inh -3 and Sfp PPTase inh -14%.
For O=C(CSc1c2c(nc3cc(Cl)ccc13)CCCC2)NCCN1CCOCC1 the results were PINK1 modulator 12%, TRPML1 agonist -0.8, Menin MLL FP FL 4.4, TRPV1 PAM -5, TRPML1 inh -4 and Sfp PPTase inh 13%.
`CCOc1ccccc1NC(=O)CN1C(=O)C(=O)c2ccccc21` gave PINK1 modulator 2.1%, TRPML1 agonist 0.1, ClpP mod -1.4% and TRPML1 inh 8.
For Cc1noc(C)c1S(=O)(=O)N1CCCCC1c1cc(C(=O)Nc2cccc3c2CCCC3)no1 (configuration not stated) the results were PINK1 modulator 1.6%, TRPML1 agonist -0.1 and ClpP mod -8.0%.
Screening Cc1cc(O)c(/C=N/c2ccccn2)c(=O)o1 returned PINK1 modulator 2.9%, TRPML1 agonist 0.2, Menin MLL FP FL inconclusive, ClpP mod -14%, TRPV1 PAM 16, TRPML1 inh 1 and Sfp PPTase inh inconclusive.
CS(=O)(=O)N(CC(=O)NCCSCc1ccco1)c1ccc(Cl)cc1 was read as PINK1 modulator 1.1%, TRPML1 agonist 1.3, Menin MLL FP FL 4.4, TRPV1 PAM 1, TRPML1 inh 5 and Sfp PPTase inh 0%.
For CCOc1ccc2nc(Cl)c(C3CC(c4ccccc4)=NN3C(=O)c3ccco3)cc2c1 (configuration not stated) the results were Menin MLL FP FL -1.1, TRPV1 PAM -1 and Sfp PPTase inh 17%.
CCOc1ccc2[nH]c(=O)c(CN(Cc3cccs3)Cc3nnnn3C(C)(C)C)cc2c1 was read as TRPML1 agonist 0.1, Menin MLL FP FL 1.0, ClpP mod -2.1%, TRPV1 PAM 7, TRPML1 inh 3 and Sfp PPTase inh -8%.
Screening COc1ccc(NC(C)=O)cc1NC(=O)CN1CCN(c2ccc(F)cc2)CC1 returned PINK1 modulator 0.8%, TRPML1 agonist -0.5, ClpP mod -1.3% and TRPML1 inh 11.
O=C(NNC(=O)c1ccccc1[N+](=O)[O-])c1csc(N2CCOCC2)n1 was read as PINK1 modulator 0.7%, TRPML1 agonist -0.1, ClpP mod -1.2%, TRPV1 PAM 2 and TRPML1 inh 18.
Screening O=C(O)CC(NS(=O)(=O)c1ccc2c(c1)OCCO2)c1ccccc1[N+](=O)[O-] (configuration not stated) returned PINK1 modulator 1.8%, TRPML1 agonist 0.8 and TRPML1 inh 18.
`CCOc1ccc(/C=N/NC(=O)c2ccccc2NC(=O)c2ccc(OC)cc2)cc1` gave PINK1 modulator 0.7%, TRPML1 agonist 0.3, Menin MLL FP FL 1.6, ClpP mod 28µM*, TRPV1 PAM 5, TRPML1 inh -7 and Sfp PPTase inh 11%.
Screening CC(=O)c1cccc(NC(=O)N2CCCC2C(=O)Nc2cc(C)ccc2C)c1 (configuration not stated) returned PINK1 modulator -0.8%, TRPML1 agonist -0.4, Menin MLL FP FL 0.0, ClpP mod -0.1%, TRPV1 PAM 20, TRPML1 inh 0 and Sfp PPTase inh 11%.
Screening O=C(Nc1ccccc1)C(=O)Nc1ccccn1 returned TRPML1 agonist 0.5, Menin MLL FP FL -3.1, ClpP mod 2.1%, TRPV1 PAM 17, TRPML1 inh 1 and Sfp PPTase inh -1%.
Screening CCc1c(C(=O)Nc2ccccc2)c(C)[nH]c(=S)c1C#N returned TRPML1 agonist -0.2, Menin MLL FP FL 0.9, ClpP mod -0.2%, TRPV1 PAM 6, TRPML1 inh 23 and Sfp PPTase inh 56µM*.
`Cc1ccccc1-c1noc(-c2ccccc2F)n1` gave PINK1 modulator 9.8%[38.3 µM], TRPML1 agonist -0.4, Menin MLL FP FL 5.2, ClpP mod -1.2%, TRPV1 PAM 0, TRPML1 inh 0 and Sfp PPTase inh -9%.
`CCOc1ccccc1Oc1c(C)oc2cc(OC(=O)c3ccco3)ccc2c1=O` gave PINK1 modulator inconclusive, TRPML1 agonist 1.4, Menin MLL FP FL 4.1, ClpP mod 123%, TRPV1 PAM -4, TRPML1 inh -2 and Sfp PPTase inh -19%.
`O=C(COC(=O)C1(c2ccc(F)cc2)CCCC1)N1CCOCC1` gave PINK1 modulator 0.5%, TRPML1 agonist -0.7, Menin MLL FP FL 0.5, ClpP mod -0.2%, TRPV1 PAM -7, TRPML1 inh 16 and Sfp PPTase inh 11%.
For O=C(NN=Cc1ccccc1Cl)c1ccc(-n2cnnn2)cc1 the results were PINK1 modulator 12%, TRPML1 agonist -0.3, ClpP mod 2.3% and TRPML1 inh 8.
Screening CCCCn1c(CNC(=O)c2cccs2)nc2ccccc21 returned PINK1 modulator -0.1%, TRPML1 agonist 0.8, Menin MLL FP FL 2.3, ClpP mod 1.1%, TRPV1 PAM -2, TRPML1 inh 5 and Sfp PPTase inh 19%.

By substructure, the compounds so far with an aryl thioether with sulfur outside any ring (2)
`COC(=O)c1ccn(CSc2cc(Cl)ccc2Cl)n1` gave PINK1 modulator -0.9%, TRPML1 agonist 1.0, ClpP mod 0.1%, TRPV1 PAM -3 and TRPML1 inh -5.
For O=C(CSc1c2c(nc3cc(Cl)ccc13)CCCC2)NCCN1CCOCC1 the results were PINK1 modulator 12%, TRPML1 agonist -0.8, Menin MLL FP FL 4.4, TRPV1 PAM -5, TRPML1 inh -4 and Sfp PPTase inh 13%.

Continuation:
For COc1cc(NC(=O)COc2ccccc2Cl)ccc1NC(=O)c1cccs1 the results were PINK1 modulator 10%, TRPML1 agonist 1.5, Menin MLL FP FL -1.6, TRPV1 PAM 1, TRPML1 inh -24 and Sfp PPTase inh 6%.
`CCc1nc2c(OCc3cc(Cl)cc(Cl)c3)cccn2c1N(C)C(=O)c1ccccc1F` gave PINK1 modulator inconclusive, TRPML1 agonist 0.5 and ClpP mod -1.0%.
Nc1ccc[n+](Cc2ccccn2)c1 was read as PINK1 modulator 1.1%, TRPML1 agonist 0.5, Menin MLL FP FL -5.3, ClpP mod inconclusive, TRPML1 inh -21 and Sfp PPTase inh 16%.
`Cc1ccc(CN2CCN(CC(=O)N=Nc3c(O)[nH]c4ccccc34)CC2)cc1` gave PINK1 modulator 20%, TRPML1 agonist 0.1, Menin MLL FP FL -0.4, ClpP mod 1.4%, TRPV1 PAM 5, TRPML1 inh -7 and Sfp PPTase inh 1%.
Screening COCCNC(=O)c1ccccc1NC(=O)c1ccc(Cl)c(S(=O)(=O)Nc2ccc(C)cc2C)c1 returned PINK1 modulator -2.3%[38.3 µM], TRPML1 agonist 0.2, Menin MLL FP FL 5.1, ClpP mod -1.0%, TRPV1 PAM -5, TRPML1 inh -9 and Sfp PPTase inh -3%.
Screening O=C(CN(c1ccccc1)S(=O)(=O)c1ccccc1)NCCSCc1ccco1 returned PINK1 modulator 0.6%, TRPML1 agonist -1.1, Menin MLL FP FL 2.6, ClpP mod -0.1%, TRPV1 PAM -14, TRPML1 inh -3 and Sfp PPTase inh -20%.
`CCCCCn1c(CN2CCN(C(=O)OCC)CC2)nc2c1c(=O)n(C)c(=O)n2C` gave PINK1 modulator -5.4%[38.3 µM], TRPML1 agonist -0.6, ClpP mod -1.0% and TRPML1 inh -12.
COC(=O)c1cc2ccsc2n1CC(=O)NCC1CCCO1 (configuration not stated) was read as PINK1 modulator -6.2%[38.3 µM], TRPML1 agonist 0.5, Menin MLL FP FL 2.9, ClpP mod -5.9%, TRPV1 PAM 0, TRPML1 inh -6 and Sfp PPTase inh 20%.
